# Assay outcomes from PubChem BioAssay.
# Rango-impB inh: prevents formation of the Rango-importin beta complex. AID 540263. 340,000 compounds, 0.031% hits. Q14974. Rango CFP/YFP FRET sensor + importin beta, 45 min. Potency, µM (titrated, usually from 92.2 µM), inactives show at the top dose inhibition of complex formation; active = rising FRET ratio curve, often small or poorly fitted; inconclusive = mostly compound fluorescence or quenching in the first reads; inactive = flat curves in all reads;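 note: potency is the fitted concentration of half-maximal effect; 0% = DMSO wells and 100% = buffer wells lacking importin beta; nearly all actives have a fitted effect of over 15% in size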
# Target sequence (Q14974 whole entry, looked up): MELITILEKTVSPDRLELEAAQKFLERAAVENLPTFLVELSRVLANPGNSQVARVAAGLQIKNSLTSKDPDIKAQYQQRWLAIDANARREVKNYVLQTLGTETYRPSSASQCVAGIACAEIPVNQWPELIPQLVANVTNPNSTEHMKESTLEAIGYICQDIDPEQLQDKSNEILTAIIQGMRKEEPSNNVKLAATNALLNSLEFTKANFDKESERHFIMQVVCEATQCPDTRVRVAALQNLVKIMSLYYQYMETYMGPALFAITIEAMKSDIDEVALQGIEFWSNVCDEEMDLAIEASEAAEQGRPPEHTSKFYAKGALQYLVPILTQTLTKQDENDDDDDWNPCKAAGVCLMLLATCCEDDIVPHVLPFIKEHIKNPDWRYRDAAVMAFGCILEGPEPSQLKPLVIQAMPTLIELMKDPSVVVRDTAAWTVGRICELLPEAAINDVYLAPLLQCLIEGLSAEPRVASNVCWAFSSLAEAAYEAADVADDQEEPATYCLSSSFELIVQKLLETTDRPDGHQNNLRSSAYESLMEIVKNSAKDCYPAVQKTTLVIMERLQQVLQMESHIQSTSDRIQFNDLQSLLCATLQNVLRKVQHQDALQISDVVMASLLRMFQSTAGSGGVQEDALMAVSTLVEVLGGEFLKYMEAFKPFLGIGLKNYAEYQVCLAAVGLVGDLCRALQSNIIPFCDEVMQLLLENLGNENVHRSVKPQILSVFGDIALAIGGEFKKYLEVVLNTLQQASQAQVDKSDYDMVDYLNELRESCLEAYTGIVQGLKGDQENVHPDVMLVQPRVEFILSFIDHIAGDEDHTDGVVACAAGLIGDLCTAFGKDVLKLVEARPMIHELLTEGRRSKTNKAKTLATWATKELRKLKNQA
#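 FRET biosensor (snurportin 1 IBB flanked by EYFP and cerulean), 50 nM, with compound 5 min, then 0.125 microM importin beta in PBS, 1 mM DTT, 0.02% Tween-20, 0.1% BSA. CFP/YFP ratio read after 45 min at room temperature; pre-read flags interference.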
# GLA inh pH 4.5: inhibitors of human alpha-galactosidase A at pH 4.5; 230,000 tested, under 10 active; purified enzyme, 4-MU-alpha-Gal fluorescence, pH 4.5; P06280; AID 1467; activity change, negative = inhibition, % at 105 µM; inconclusive = small, poorly fitted or top-dose-only inhibition, or a rising curve; inactive = flat fitted curve, though single readings scatter; no compound was filed as active;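 note: 0% = full activity with enzyme and -100% = basal without enzyme; dose as in the result columns while the protocol names 77 µM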
# miR-21 FLuc: raises the signal of a miR-21 reporter. HeLa miR-21 FLuc reporter, luciferase, 48 h. Potency, µM (series often up to 38.3 µM), without a hit: at the highest dose reporter change, positive = more light. 340,000 tested, under 10 active; active = well fitted rising curve with a large enough effect; inconclusive = small, poorly fitted or top-dose-only effect; inactive = no such curve, though single readings can be large or run the other way;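 note: % of control where 0% means no effect; miR-21 action dims this reporter so a rising signal means less miR-21 action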
#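 Luminescence from a firefly luciferase reporter carrying a miR-21 binding site downstream, stably expressed under a CMV promoter in HeLa cells that make miR-21 endogenously, reports miRNA modulation after 48 h compound exposure up to approximately 40uM final.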
# Rango dissoc inh: prevents RanGTP from dissociating the Rango-importin beta complex; O95149+P62826; AID 540253; 340,000 compounds, 0.071% hits; Potency, µM (top dose mostly 46.1 µM), for inactives: at the top dose activity change, negative = inhibition; Biochemical FRET Rango-importin beta, RanGTP-induced dissociation; active means falling FRET ratio curve, often poorly fitted, with flat reads before Ran was added; inconclusive means other falling curves, or compound fluorescence or quenching; inactive means flat or rising ratio curve;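 note: potency is the fitted concentration of half-maximal effect; % of control where 0% means no effect; nearly all actives have a fitted effect of over 45% in size; -100% = wells without RanGTP and RCC1; the record marks most hits as doubtful in a second field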
#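 Rango/importin beta premix (0.1/0.25 uM final), PBS + 1 mM DTT + 0.02% Tween-20 + 0.1% BSA; cpd 5 min RT; FRET pre-read; + RanGTP-RCC1 (0.6 uM Ran, 2 mM GTP, 0.2 uM RCC1); 45 min RT; FRET post-read, ex 430, em 486/530 nm.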
# Numbers without * were called inactive; u = inconclusive; x = no result given; & = joins results of further samples. Some of the compounds tested, so the mix of outcomes need not match the whole.
Rango-impB inh	GLA inh pH 4.5	Rango dissoc inh	miR-21 FLuc	Molecule
-2.3%	x	-5%	-12%	Cc1cc(Cl)ccc1NC(=O)c1ccc2c(c1)CCN2S(C)(=O)=O
1.1%	x	7%	1%	COc1cccc2[nH]c(C(=O)NCc3ccccc3)cc12
-2.7%	4	-3%	28%	CCN(CC)c1nc2ccccc2c(N)c1-c1ccccc1
2.3%	x	-6%	x	OCC1(CO)CC2(C1)CC(CO)(CO)C2
-4.2%	x	25%	0%	CCOC(=O)Cc1csc(NC(=O)CN2CCN(CC)CC2)n1
0.2%	-8	-2%	-76%	CCc1cccc2c(C(=O)COC(=O)c3ccccc3)c[nH]c12
u	x	-2%	-37%	COc1ccc(C(=O)Nc2nnc(SCC(=O)NC3CC3)s2)cc1
0.0%	x	-13%	x	Cc1ccc(C(=O)Nc2ccc(N3CCOCC3)cc2)cc1S(=O)(=O)N1CCCCC1
3.2%	x	-2%	7%	CCC(Cc1ccccc1)NS(=O)(=O)c1ccc2c(c1)NC(=O)CO2 (stereo not given)
0.5%	-2	1%	0%	COc1ccc(CC2(CO)CCN(Cc3cnn(C)c3)CC2)cc1

# 2 of these compounds in a different format:
SMILES: Cc1ccc(C(=O)Nc2ccc(N3CCOCC3)cc2)cc1S(=O)(=O)N1CCCCC1
  Rango-impB inh: 0.0%
  GLA inh pH 4.5: x
  Rango dissoc inh: -13%
  miR-21 FLuc: x

SMILES: CCC(Cc1ccccc1)NS(=O)(=O)c1ccc2c(c1)NC(=O)CO2 (stereo not given)
  Rango-impB inh: 3.2%
  GLA inh pH 4.5: x
  Rango dissoc inh: -2%
  miR-21 FLuc: 7%

# Other entries follow.
Rango-impB inh	GLA inh pH 4.5	Rango dissoc inh	miR-21 FLuc	Molecule
-1.9%	2	3%	-15%	Cc1cccc(C)c1Nc1ncnc(N)c1[N+](=O)[O-]
-4.7%	-1	12%	5%	CCOC(=O)C(Cc1ccc(NC(=O)/C(=C/c2ccc(OC(C)=O)cc2)NC(C)=O)cc1)N1C(=O)c2ccccc2C1=O (stereo not given)
4.4%	2	28%	-24%	O=C(NCCc1ccccc1)c1ccccc1F
2.5%	x	-1%	x	COc1ccccc1C(=O)NCCC(=O)NCC(c1ccco1)N1CCCC1 (stereo not given)
0.1%	1	5%	-3%	O=C1CS/C(=N\N=C\c2ccco2)N1c1ccccc1
1.2%	x	26%	-19%	CCCn1cc(SCC(=O)NC2CCCC2)c2ccccc21
0.8%	x	11%	x	CCN(c1ccccc1)S(=O)(=O)c1ccc(Cl)c(C(=O)NCc2ccco2)c1
1.5%	0	41%	-5%	CCN(CC)CC(O)COC(c1ccccc1)c1ccccc1 (stereo not given)
0.1%	2	12%	-2%	CN(C(=O)CSc1nnc(-c2ccco2)n1N)C1CCCCC1
0.3%	1	-4%	-1%	C=CCn1c(NC(=O)CC)c(C(=O)OCC)sc1=S
-1.1%	x	-2%	x	Cc1ccc([C@@H]2CC=C(C(=O)O)[C@H](c3ccc(F)cc3)N2S(=O)(=O)c2ccccc2C)cc1
-1.1%	x	0%	1%	CC(C)c1ccc(N(CC(=O)NCCc2ccccc2)C(=O)c2csnn2)cc1
-0.9%	-3	9%	-32%	CS(=O)(=O)N1Cc2ccccc2CC1C(=O)Nc1ccccc1C(N)=O (stereo not given)
-1.4%	-20	-4%	9%	CCn1c(=O)c2c(nc3n2CCS3)n(C)c1=O
1.2%	4	-6%	-41%	CN(C)Cc1c(O)ccc2occ(C(=O)c3ccccc3)c12
0.3%	5	-4%	-5%	O=C1NC(c2ccccc2)=C(c2ccccc2)C1=O
-0.7%	x	-22%	x	OCC[C@H]1C[C@@H](O)[C@H](O)[C@]2(Cc3ccccc3CCO2)O1
u	-1	-3%	-9%	CCCOc1ncnc2c1[nH]c1ccccc12
0.2%	x	-9%	2%	COC(=O)[C@H](CC(C)C)NS(=O)(=O)c1ccccc1
6.6%	-7	-9%	-6%	COc1cc([C@H]2[C@@H]3CCCC[C@]3(O)CCN2Cc2ccccc2F)ccc1O
4.6%	-3	-1%	-2%	COC(=O)C(C)Sc1nnc(Cc2cc(=O)[nH]c(=O)[nH]2)n1-c1cccc(OC)c1 (stereo not given)
2.3%	2	-14%	-3%	CC(C)(C)C(=O)Nc1nc2c(s1)COc1ccccc1-2
-0.5%	-5	4%	23%	COc1ccc(N2CCN(C(=O)CCCSc3nc4ccccc4[nH]3)CC2)cc1
1.7%	x	-5%	-9%	Cc1ccc(NC(=O)O/N=C/c2ccc(Br)cc2)cc1
-0.5%	x	-3%	x	COc1ccc(NC(=O)CN(C)C(=O)CN2C(=O)NC3(CCCC3)C2=O)cc1
u	x	10%	-3%	CNc1ccc(/C=C(\C#N)C(=O)Nc2ccccn2)cc1[N+](=O)[O-]
3.7%	x	0%	0%	CC(C)C[C@@H]1NC(=O)N(CCCn2ccnc2)C1=O
0.2%	0	0%	-6%	O=c1c2c(n3nnnc3n1Cc1ccccc1)-c1ccccc1CC21CCCC1
3.1%	-11	u	10%	O=C(NNc1ccc(Cl)cc1)c1sccc1Cl
0.3%	x	-6%	-7%	CCOC(=O)C1CCN(C(=O)CCCn2c(=O)c3cccn3c3cccnc32)CC1

# Record cards, as listed above. Screens in order: Rango-impB inh	GLA inh pH 4.5	Rango dissoc inh	miR-21 FLuc
# COc1ccc(N2CCN(C(=O)CCCSc3nc4ccccc4[nH]3)CC2)cc1 reads -0.5%	-5	4%	23%
# CC(C)(C)C(=O)Nc1nc2c(s1)COc1ccccc1-2 reads 2.3%	2	-14%	-3%
# COC(=O)C(C)Sc1nnc(Cc2cc(=O)[nH]c(=O)[nH]2)n1-c1cccc(OC)c1 (stereo not given) reads 4.6%	-3	-1%	-2%
# Cc1ccc(NC(=O)O/N=C/c2ccc(Br)cc2)cc1 reads 1.7%	x	-5%	-9%
# O=C(NNc1ccc(Cl)cc1)c1sccc1Cl reads 3.1%	-11	u	10%

# Additional records
Rango-impB inh	GLA inh pH 4.5	Rango dissoc inh	miR-21 FLuc	Molecule
2.7%	x	3%	x	CC(NC(=O)C1CCN(S(=O)(=O)c2cccs2)CC1)c1cccc(Cl)c1 (stereo not given)
1.9%	-1	26%	-14%	N/C(=N\OC(=O)CCc1ccccc1)c1cccc(Br)c1
2.8%	x	0%	0%	O=C(CCCCCN1C(=O)[C@@H]2Cc3ccccc3CN2C1=O)N[C@@H](Cc1ccc(O)cc1)C(=O)O
-1.0%	-2	1%	3%	COc1cc(C(=O)Nc2sc(C)c(C)c2C(=O)O)cc(OC)c1OC
12%	1	15%	-20%	CN(C)/C=N/c1sc2c(c1C#N)CCC2
-1.8%	x	7%	x	Cc1ccc(C(CC(=O)O)NC(=O)c2ccc(S(=O)(=O)N3CCCC3)cc2)cc1 (stereo not given)
1.9%	x	3%	x	CCOc1ccc(CCNC(=O)COC(=O)c2cccc(N(C)C)c2)cc1OCC
-4.4%	-19	27%	-10%	Cc1ccc(S(=O)(=O)Oc2ccc(/C=N/NC(=O)c3c(Cl)cnn3C)cc2)cc1
u	x	u	-4%	COc1ccc(/C=C2\Oc3cc(OCC(N)=O)ccc3C2=O)cc1OC
2.1%	x	1%	x	FC(F)(F)c1cc(CCN2CCNC[C@@H]2c2ccccc2)cc(C(F)(F)F)c1
4.9%	x	13%	-1%	CCCCN(CC)CCNC(=O)c1cc2c(=O)n(C)c3ccccc3c2s1
2.6%	-5	-15%	2%	CCOc1ccc(C(=O)Nc2ccc(S(=O)(=O)N3CCOCC3)cc2)cc1OCC
-3.2%	8	u	-3%	Oc1ccccc1C=NCC(O)c1ccccc1 (stereo not given)
-4.0%	x	0%	x	CCOc1ccc(Br)cc1S(=O)(=O)NC1CCCC1
-2.6%	x	15%	x	CCN1C(=O)[C@H]2[C@@H](c3ccc(-c4ccc(C(C)=O)cc4)cc3)N3CCC[C@@]3(C(=O)OC)[C@H]2C1=O
-1.1%	-7	-1%	-9%	CCOC(=O)c1ccc(N2C(=O)C3C(C2=O)C(C(=O)c2ccc(Cl)cc2)N2CCCC32)cc1 (stereo not given)
-2.0%	-18	-17%	6%	CCCCCC(O)(CCN1CCCCC1)c1ccc(OCC)cc1 (stereo not given)
u	-27	-7%	0%	Cc1c(C(=O)NCCSCc2c(F)cccc2Cl)cnn1-c1ccc(Cl)cc1
0.6%	x	3%	x	C[C@H]1CN(S(=O)(=O)c2ccc3c(c2)OCCO3)CCN1S(=O)(=O)c1c(F)cccc1F
-2.0%	x	6%	x	Cc1[nH]n(-c2ccccc2)c(=O)c1N=Nc1c(O)cc(S(=O)(=O)N(C)C)c2ccccc12
1.7%	0	0%	6%	COc1cc(NC(=S)N2CCCC(CO)C2)cc(OC)c1 (stereo not given)
-0.7%	-7	-3%	3%	CC(=O)Oc1ccc(NC(=O)Cc2ccccc2)c(C(=O)O)c1
3.2%	-1	30%	-3%	CCOC(=O)c1cc(C)n(Cc2ccc(OCC)c(OC)c2)c1C
-2.0%	-4	-5%	-4%	CC(C)OC(=O)NCCOC(=O)Nc1ccc(Cl)c(Cl)c1
8.8%	6	-5%	6%	Nc1nc(SCC(=O)Nc2cc(C(F)(F)F)ccc2N2CCOCC2)n[nH]1
2.8%	x	-7%	-1%&-2%	Cc1ccc(N2CC(C(=O)NCCS(=O)(=O)N3CCN(c4ccccc4F)CC3)CC2=O)cc1 (stereo not given)
-4.7%	0	-3%	-3%	Cc1ccc(NC(=O)CC2S/C(=N/N=C3\CCCc4ccccc43)NC2=O)cc1 (stereo not given)
2.2%	-4	17%	-3%	CCN(CC)C(=O)C(C)OC(=O)COc1ccc(Cl)cc1C (stereo not given)
5.2%	2	-17%	4%	C/C(=N/NC(=O)Cc1cccc2ccccc12)c1cccs1
-0.6%	-5	-14%	-2%	CCOc1ccc(C)cc1S(=O)(=O)Nc1ccc(Cl)cn1

# 3 of the entries above in order of the Rango dissoc inh value, falling:
Rango-impB inh	GLA inh pH 4.5	Rango dissoc inh	miR-21 FLuc	Molecule
1.2%	x	26%	-19%	CCCn1cc(SCC(=O)NC2CCCC2)c2ccccc21
-2.3%	x	-5%	-12%	Cc1cc(Cl)ccc1NC(=O)c1ccc2c(c1)CCN2S(C)(=O)=O
2.8%	x	-7%	-1%&-2%	Cc1ccc(N2CC(C(=O)NCCS(=O)(=O)N3CCN(c4ccccc4F)CC3)CC2=O)cc1 (stereo not given)

# Additional compounds follow.
Rango-impB inh	GLA inh pH 4.5	Rango dissoc inh	miR-21 FLuc	Molecule
-1.2%	x	4%	1%	OC(COc1ccc(Br)cc1)Cn1ccnc1 (stereo not given)
u	u	-28%	4%	N#Cc1c(C(F)(F)F)cc(-c2cccc(Cl)c2)[nH]c1=O
5.3%	x	-7%	-5%	Cc1oc2c(CN3CCCCC3C)c(O)ccc2c(=O)c1-c1ccc(Br)cc1 (stereo not given)
-1.2%	7	-2%	-15%	CC(=O)c1ccccc1OCCCN1CCCCC1
-0.5%	x	0%	-3%	NS(=O)(=O)c1ccc(-n2nncc2-c2ccco2)cc1
-0.4%	x	-9%	x	COc1ccc(OC)c(NC(=O)CSc2nnc3ccc(-c4ccccn4)nn23)c1
-0.4%	-1	0%	3%	CC(C)CCNC(=O)C(NS(=O)(=O)c1ccc2c(c1)c(=O)n(C)c(=O)n2C)c1ccccc1 (stereo not given)
0.8%	-3	-8%	-5%&-4%	Cc1[nH]c(=O)[nH]c(=O)c1S(=O)(=O)N1CCN(c2cccc(Cl)c2)CC1
-1.9%	12	-8%	0%	CCC(Sc1nc2ccc(N)cc2s1)C(=O)Nc1nccs1 (stereo not given)
-1.5%	1	0%	7%	CCCC(=O)Nc1ccc(C(=O)Nc2nc(CC(=O)OCC)cs2)cc1
3.5%	x	17%	2%	O=C(Nc1nnc(-c2ccncc2)o1)c1ccc2ccccc2c1
-2.4%	x	-26%	-15%	COc1ccc(-n2cc(-c3ccccc3)c3c(=S)nc[nH]c32)cc1
-1.1%	-23&4	6%	x	NC(N)=NC(=O)c1nc(Cl)c(N2CCCCCC2)nc1N
u	-6	u	24%	COc1ccc(-c2csc(Nc3ccc(S(N)(=O)=O)cc3)n2)cc1OC
-7.4%	-2	9%	-2%	COc1ccccc1N1CCN(S(=O)(=O)c2c(C)[nH]c(=O)[nH]c2=O)CC1
-3.4%	-9	-5%	-16%	Cc1cc(-c2nn3c(-c4ccccc4)nnc3s2)c2ccccc2n1
